Screens as filed in PubChem BioAssay.
FPR binding = small-molecule ligands of human FPR – U937-FPR cells, fMLFK-FITC, flow cytometry, primary screen (AID 362); U937-FPR cells, fMLFK-FITC displacement, flow cytometry; hits give high values; test concentration not given here; most inactive calls were filed without a number and no value below 0 was filed; inhibition, %; 1% of 4,300 active;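 active = inhibition of labelled peptide binding to the formyl peptide receptor of at least 65%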;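 note: plate controls were buffer control wells for no effect and unlabeled fMLFF blocking peptide for full effect; higher means less cell fluorescence so more probe displaced; part of the set was picked by virtual screening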
The depositor's hits bear a star; i = inactive. Only part of the results is shown. The share of hits here may be higher or lower than overall.

A first look (three entries):
SMILES	FPR binding
CCCCN(CCCC)S(=O)(=O)c1ccc2c(c1)C(=NO)c1cc(S(=O)(=O)N(CCCC)CCCC)ccc1-2	i
CCOc1ccc(C2NC(=O)NC(C)=C2C(=O)OCC2CCCCC2)cc1OC (centres undefined)	i
CC(=O)Oc1ccc(C2C(C(=O)OCC(C)C)=C(C)NC3=C2C(=O)CC(c2cccs2)C3)cc1 (centres undefined)	i

The list itself (from the top)
SMILES	FPR binding
CCCCN(CCCC)S(=O)(=O)c1ccc2c(c1)C(=NO)c1cc(S(=O)(=O)N(CCCC)CCCC)ccc1-2	i
CCOc1ccc(C2NC(=O)NC(C)=C2C(=O)OCC2CCCCC2)cc1OC (centres undefined)	i
CC(=O)Oc1ccc(C2C(C(=O)OCC(C)C)=C(C)NC3=C2C(=O)CC(c2cccs2)C3)cc1 (centres undefined)	i
O=C(COc1cc2oc(=O)c3c(c2cc1Cl)CCC3)OCc1ccccc1	i
CCC(C)(C(=O)NC1CCCC1)N(C(=O)CNC(C)=O)c1ccccc1 (centres undefined)	6
COc1cc([N+](=O)[O-])cc2c1NC(c1ccc(Br)cc1)C1CC=CC21 (centres undefined)	i
COCCCNC(=O)c1cn(CC(C)C)c(=O)c2cc(OC)c(OC)cc12	i
CCS(=O)(=O)c1c(S(=O)(=O)CC)c2cc(C(C)(C)C)ccn2c1C(=O)c1ccc(OC)cc1	11
CC(=O)Nc1ccc(S(=O)(=O)NCC2CCC(C(=O)NC3CCCC(C)C3C)CC2)cc1 (centres undefined)	i
CC(C)CN(CCNC(=O)CN1C(=O)CSc2ccc(S(=O)(=O)N3CCOCC3)cc21)CC(C)C	i
Cc1nc(-n2nnc3cc(C)c(C)cc32)c2c3c(sc2n1)CCCC3	i
CCC(C)OC(=O)C1=C(C)NC2=C(C(=O)C(C(=O)OC)C(C)C2)C1c1ccc(Cl)cc1 (centres undefined)	12
COc1cccc(C(=O)Oc2ccc(C(C3=C(O)CC(C)(C)CC3=O)C3=C(O)CC(C)(C)CC3=O)cc2OC)c1	87*
CCc1c(C)c(C#N)c2nc3ccccc3n2c1-n1ccnc1C	7
Cc1cc(C(C)CO)cc(C(C)(C)C)c1O (centres undefined)	i
CCOC(=O)C1=C(C(F)(F)F)Nc2ncnn2C1c1cccc(OC)c1OC (centres undefined)	i
COc1cc2c(cc1OC)C1C(C(=O)N3CCCCC3)c3ccccc3C(=O)N1CC2 (centres undefined)	i
CCc1cc2c(=O)c(Oc3ccccc3)c(C(F)(F)F)oc2cc1OC	i
Cc1sc2ncn(CC(=O)N3CCN(Cc4ccccc4)CC3)c(=O)c2c1S(=O)(=O)N1CCC(C)CC1	i
CCOc1cc2c(cc1OCC)C1C(C(=O)N3CCC(C)CC3)c3ccccc3C(=O)N1CC2 (centres undefined)	3
O=C1C2C(c3ccccc3C(F)(F)F)OC3(C(=O)c4ccccc4C3=O)C2C(=O)N1c1ccc(Cl)cc1 (centres undefined)	i
CC1(C)CC(=O)C2=C(C1)c1c(ccc3ccccc13)NC2c1cc([N+](=O)[O-])ccc1N1CCOCC1 (centres undefined)	72*
COc1ccc(C2NC(=O)NC(C)=C2C(=O)OC2CCCC2)cc1OC (centres undefined)	i
COc1ccc(C(C2C(=O)CC(C)(C)CC2=O)C2C(=O)CC(C)(C)CC2=O)cc1OC	25
CCSCCOC(=O)C1=C(C)NC2=C(C(=O)C(C(=O)OC)C(C)C2)C1c1cccc(O)c1 (centres undefined)	13
SMILES	FPR binding
CN1CCN(Cc2c(O)ccc3c(=O)c(Oc4ccccc4Br)c(C(F)(F)F)oc23)CC1	27
CC(=O)Oc1ccc(C2C(C(=O)OCC(C)C)=C(C)NC3=C2C(=O)CC(c2ccccc2)C3)cc1 (centres undefined)	i
CCOC(=O)CSc1nc2cc3c(cc2c(=O)n1CCCCCC(=O)NCc1ccc2c(c1)OCO2)OCO3	5
CCOC(=O)C1=C(C)NC2=C(C(=O)C(C(=O)OC)C(C)C2)C1c1ccc(C)c([N+](=O)[O-])c1 (centres undefined)	16
COc1ccc2c(=O)c(-c3ccccc3C)c(C(F)(F)F)oc2c1	i
COc1ccc(C(C(=O)NC2CCCC2)N2CC(C)CC(C)C2)cc1 (centres undefined)	6
CCc1ccc(NC(=O)CSc2nc3ccccc3c(=O)n2CC2CCC(C(=O)NCc3ccco3)CC2)cc1 (centres undefined)	1
CCCC(NC1CCS(=O)(=O)C1)C(=O)O (centres undefined)	4
COCCOC(=O)C1=C(N)OC2=C(C(=O)CC(C)(C)C2)C1c1cccc([N+](=O)[O-])c1 (centres undefined)	8
CCOC(=O)CC(C(C)C)N(Cc1ccc(Cl)c([N+](=O)[O-])c1)S(=O)(=O)c1ccc(OC)cc1 (centres undefined)	i
CCCOc1ccc(C(=O)CCNC(C(=O)O)C(C)C)cc1 (centres undefined)	i
CC(C)Cn1cc(C(=O)NCCCN2CCCC2)c2c3ccccc3n(C)c2c1=O	4
CCOCCOC(=O)C(C)Oc1ccc2c(=O)c(Oc3ccc(OC)cc3)c(C(F)(F)F)oc2c1 (centres undefined)	21
COc1ccc(S(=O)(=O)NC(CC(=O)NC2CCCC2)C(C)C)cc1 (centres undefined)	7
CC(C)C(NC(=O)c1ccc(C23CC4CC(CC(C4)C2)C3)cc1)C(=O)Nc1ccccn1 (centres undefined)	i
COc1ccc(C2NC(=O)NC(C)=C2C(=O)OC2CCCCCC2)cc1OC (centres undefined)	i
COCCNc1ccc(N2C(=O)C3C4C=CC(C4)C3C2=O)cc1[N+](=O)[O-] (centres undefined)	i
Cc1ccc2nc3c(cc(C(=O)NCc4ccccc4)c(=N)n3C3CCCC3)c(=O)n2c1	7
COC(=O)c1sc2nc(-c3ccc4c(c3)OCO4)cc(C(F)(F)F)c2c1N	i
O=C(NCCC1=CCCCC1)C1CCC(CNS(=O)(=O)c2ccc(Br)s2)CC1 (centres undefined)	15
CCC(C)OC(=O)C1=C(C)NC2=C(C(=O)C(C(=O)OC)C(C)C2)C1c1cccc(OC)c1OC (centres undefined)	16
CN1C(=O)NC(c2ccc([N+](=O)[O-])cc2)C2=C1CC(C)(C)CC2=O (centres undefined)	i
CCCCCCCOC(=O)C1=C(C)NC(=O)NC1c1cc(OC)c(OC)c(OC)c1 (centres undefined)	6
CCCCN(C)C(=O)c1sc2ncn(CC(=O)Nc3cccc(C(F)(F)F)c3)c(=O)c2c1C	i
CCCOC(=O)C1=C(C)NC2=C(C(=O)C(C(=O)OC)C(C)C2)C1c1ccccc1OC(C)C (centres undefined)	i
SMILES	FPR binding
CCCCCOC(=O)C1=C(C)NC(=O)NC1c1ccc(OCC)c(OC)c1 (centres undefined)	i
CCC(C)C(Nc1ccc(C(=O)OC)cc1[N+](=O)[O-])C(=O)OC (centres undefined)	i
CC1=C(C(=O)OC2CCCC2)C(c2cccc([N+](=O)[O-])c2)NC(=O)N1C (centres undefined)	28
CCOCCOC(=O)C1=C(C)NC2=C(C(=O)C(C(=O)OC)C(C)C2)C1c1ccc2c(c1)OCO2 (centres undefined)	31
CCCCNC(=O)Cn1cnc2sc(C)c(S(=O)(=O)N3CCC(C)CC3)c2c1=O	i
COc1ccc(C2C3=C(CC(C)(C)CC3=O)Nc3nc4ccccc4n32)c(OC)c1 (centres undefined)	i
CN(Cc1ccccc1)Cc1c(O)ccc2c(=O)c(-c3cccc4ccccc34)c(C(F)(F)F)oc12	i
CCOc1ccc(NC(=O)CSc2nc3ccccc3c(=O)n2CC2CCC(C(=O)NCc3ccco3)CC2)cc1 (centres undefined)	i
COc1ccc(OC)c(S(=O)(=O)NC2CCCCCC2)c1	0
O=C1C2C3C=CC(C2C(=O)N1Cc1cccnc1)C1C(=O)N(Cc2cccnc2)C(=O)C31 (centres undefined)	i
O=C(O)c1cc(C(=O)O)cc(N2C(=O)C3C4C=CC(C4)C3C2=O)c1 (centres undefined)	i
COc1ccc(CN2CCN(C(=O)C3CCC(CNS(=O)(=O)c4ccc(C)cc4)CC3)CC2)c(OC)c1OC (centres undefined)	i
Cc1cc(C)c(S(=O)(=O)NCC2CCC(C(=O)NCCN3CCOCC3)CC2)c(C)c1 (centres undefined)	i
COc1ccc(C2C3=C(CC(C)(C)CC3=O)Nc3ncnn32)cc1Br (centres undefined)	i
CCOC(=O)c1cc2c(=O)n3ccccc3nc2n(C2CCCCC2)c1=NC(=O)c1ccc([N+](=O)[O-])cc1	i
O=C(O)C1C2C=CC(C2)C1C(=O)NCC1CCCO1 (centres undefined)	2
O=C(Nc1ccc(Cl)cc1C(F)(F)F)c1cc(S(=O)(=O)NCCc2ccccc2)ccc1F	i
CCOC(=O)c1c(-c2ccc(F)cc2)csc1NC(=O)C1CCCCC1C(=O)O (centres undefined)	35
CCN(CCCNC(=O)Cn1cnc2sc(C)c(S(=O)(=O)N3CCC(C)CC3)c2c1=O)c1cccc(C)c1	i
COC(=O)C1C(=O)C2=C(CC1C)NC(C)=C(C(=O)OCc1ccc(OC)cc1)C2c1ccc(C)s1 (centres undefined)	i
O=C1C2C3C=CC(C3)C2C(=O)N1c1ccc(NCCC2=CCCCC2)c([N+](=O)[O-])c1 (centres undefined)	7
COC(=O)C1C(=O)C2=C(CC1C)NC(C)=C(C(=O)OC1CCCCC1)C2c1ccc(C)s1 (centres undefined)	i
CCOC(=O)C1=C(C)NC2=C(C(=O)C(C(=O)OC)C(C)C2)C1c1ccc(O)c(OCC)c1 (centres undefined)	0
Cc1cc(C)cc(Oc2c(C(F)(F)F)oc3c(CN4CCN(C)CC4)c(O)ccc3c2=O)c1	i
CC1(C)CC(=O)C(C(c2cccc(OCc3ccccc3)c2)C2C(=O)CC(C)(C)CC2=O)C(=O)C1	92*

Arranged by the number under FPR binding (highest first): 6 from the list above.
SMILES	FPR binding
CC1(C)CC(=O)C(C(c2cccc(OCc3ccccc3)c2)C2C(=O)CC(C)(C)CC2=O)C(=O)C1	92*
CCOC(=O)c1c(-c2ccc(F)cc2)csc1NC(=O)C1CCCCC1C(=O)O (centres undefined)	35
CC1=C(C(=O)OC2CCCC2)C(c2cccc([N+](=O)[O-])c2)NC(=O)N1C (centres undefined)	28
O=C1C2C3C=CC(C3)C2C(=O)N1c1ccc(NCCC2=CCCCC2)c([N+](=O)[O-])c1 (centres undefined)	7
O=C(O)C1C2C=CC(C2)C1C(=O)NCC1CCCO1 (centres undefined)	2
COc1ccc(OC)c(S(=O)(=O)NC2CCCCCC2)c1	0

(continued)
SMILES	FPR binding
CC(C)CCn1c(N2CCNCC2)nc2c1c(=O)[nH]c(=O)n2C	i
CCOC(=O)N1CCN(C(=O)c2cn(CC(C)C)c(=O)c3cc(OC)c(OC)cc23)CC1	i
CC12C(=O)N(c3cccc([N+](=O)[O-])c3)C(=O)C1C1C=CC2C1 (centres undefined)	4
COc1ccc(C2c3sc(=O)[nH]c3SC3C4CC(C5C(=O)N(CCC(=O)O)C(=O)C45)C23)cc1 (centres undefined)	1
CC(=O)Nc1ccc(S(=O)(=O)NCC2CCC(C(=O)N3CCN(c4ccccn4)CC3)CC2)cc1 (centres undefined)	i
O=C1c2cccc3cccc(c23)C(=O)N1CC1CCN(S(=O)(=O)/C=C/c2ccccc2)CC1	6
CCOC(=O)C1CCC(CN(Cc2ccc(Cl)cc2)S(=O)(=O)c2cccc(C(F)(F)F)c2)CC1 (centres undefined)	i
CCCCOC(=O)C1=C(C)NC(=O)NC1c1ccc(OCC)c(OC)c1 (centres undefined)	13
CCOc1ccc(S(=O)(=O)N2CC=C(c3ccccc3)CC2)c2cccnc12	i
COc1cc(C2NC(=O)NC(C)=C2C(=O)OCC(F)(F)F)cc(Cl)c1O (centres undefined)	i
CCCc1cc(=O)oc2cc(OC(C)=O)ccc12	18
CCOc1ccc(C2C(C#N)=C(N)N(c3ncn[nH]3)C3=C2C(=O)CC(C)(C)C3)cc1 (centres undefined)	12
CCCCCCC1C(C#N)=C(N)OC2=C1C(=O)CCC2 (centres undefined)	i
COc1ccc(NC(=O)CSc2c3c(nc4ccccc24)CCCC3)cc1OC	i
COC(=O)C1=C(N)OC2=C(C(=O)CC(C)(C)C2)C1c1ccc(Br)cc1 (centres undefined)	11
COc1ccc(Oc2c(C(F)(F)F)oc3cc(OC(=O)C4CCCO4)ccc3c2=O)cc1 (centres undefined)	13
CCn1cc(C(=O)N2CCCCCC2)c2cc(OC)c(OC)cc2c1=O	i
Cc1ccc(S(=O)(=O)Nc2cc(C(C)C)c(O)c(Cl)c2C)cc1	i
CC1(C)CC(=O)C2=C(C1)Nc1ncnn1C2c1ccc(O)cc1 (centres undefined)	3
COc1ccccc1-n1c(-c2ccc(Br)cc2)cc2c1CC(C)(C)CC2=O	16
COC(=O)C1=C(N)OC2=C(C(=O)CC(C)(C)C2)C1c1cccc([N+](=O)[O-])c1 (centres undefined)	2
CC1(C)CC(=O)C2=C(C1)Nc1ncnn1C2c1ccccc1Cl (centres undefined)	i
CC(C)C(NC(=O)C(N)CCCN=C(N)N)C(=O)O (centres undefined)	i
CCOc1ccccc1Nc1nc(C)nc2sc3c(c12)CCCC3	i
CCCCOC(=O)c1ccc2c(c1)C1C=CCC1C(C(=O)O)N2 (centres undefined)	15
SMILES	FPR binding
Cc1ccc(S(=O)(=O)NCC2CCC(C(=O)NCCCN3CCCC3)CC2)cc1 (centres undefined)	i
O=C(O)C1C2CCC(C2)C1C(=O)NCC1CCCO1 (centres undefined)	6
CCCOc1ccc(C(=O)NCC2(c3ccc(OC)cc3)CCOCC2)cc1	16
CCCOC(=O)c1cccc(N2C(=O)C3C4CCC(C4)C3C2=O)c1 (centres undefined)	i
CCOCCOC(=O)C1=C(C)NC2=C(C(=O)C(C(=O)OC)C(C)C2)C1c1ccc(O)cc1 (centres undefined)	14
CCCOc1ccc(C2NC(=O)NC(C)=C2C(=O)OC2CCCCCC2)cc1OC (centres undefined)	i
CC1CCCC(C)N1Cc1c(O)ccc2c3c(c(=O)oc12)CCC3 (centres undefined)	4

Looked up one by one from the entries so far, 4 records:
SMILES	FPR binding
CCCOc1ccc(C(=O)NCC2(c3ccc(OC)cc3)CCOCC2)cc1	16
O=C(O)C1C2CCC(C2)C1C(=O)NCC1CCCO1 (centres undefined)	6
CCCOC(=O)c1cccc(N2C(=O)C3C4CCC(C4)C3C2=O)c1 (centres undefined)	i
Cc1ccc(S(=O)(=O)NCC2CCC(C(=O)NCCCN3CCCC3)CC2)cc1 (centres undefined)	i
